STK33 inh = blocks human STK33 kinase activity. Q9BYT3. purified STK33, MBP phosphorylation, ADP-Glo luminescence. inhibition, % at 10 µM. 320,000 tested, 0.073% active. AID 2661;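 active means inhibition at or above 25%, using the most active replicate where run in duplicate; inactive means inhibition below 25%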
Target sequence (Q9BYT3 whole entry, looked up): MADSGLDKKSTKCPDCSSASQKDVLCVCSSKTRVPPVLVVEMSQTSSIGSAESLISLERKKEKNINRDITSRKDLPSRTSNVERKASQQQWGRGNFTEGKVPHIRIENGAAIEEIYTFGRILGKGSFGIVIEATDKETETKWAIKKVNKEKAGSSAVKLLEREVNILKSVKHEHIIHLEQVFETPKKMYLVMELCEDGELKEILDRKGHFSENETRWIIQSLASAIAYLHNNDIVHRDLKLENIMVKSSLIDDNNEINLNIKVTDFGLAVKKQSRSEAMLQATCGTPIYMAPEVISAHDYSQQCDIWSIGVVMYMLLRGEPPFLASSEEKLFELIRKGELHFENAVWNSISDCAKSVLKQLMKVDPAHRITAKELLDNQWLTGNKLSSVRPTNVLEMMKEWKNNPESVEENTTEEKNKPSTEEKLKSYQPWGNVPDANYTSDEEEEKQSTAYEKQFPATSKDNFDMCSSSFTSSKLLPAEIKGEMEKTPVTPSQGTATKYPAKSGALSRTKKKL
Starred values were filed as active, the others as inactive. The list is partial, and most or all hits are left out here.

SMILES,STK33 inh
O=C(NS(=O)(=O)Oc1ccc(F)c(Cl)c1)OC[C@@H]1CCCN2CCCCC12 (some centres not stated),2.3
CC(=O)c1cccc(NC(=O)CCn2c(=O)oc3ccccc32)c1,-0.2
CCN(CC)CCn1c(NCc2ccccn2)nc2ccccc21,-1.0
O=C(C1=C[C@H](c2ccccc2)C[C@H](OCc2ccc(CO)cc2)O1)N1CCN(Cc2ccccc2)CC1,-1.2
CC(=O)c1ccc(NC(=O)c2ccccc2Sc2ncnc3sc(C)c(C)c23)cc1,-1.6
Cc1c(N2C(=O)/C(=C\c3cccc4ccccc34)SC2=S)c(=O)n(-c2ccccc2)n1C,-0.1
OC(CNCc1ccccc1C(F)(F)F)C(F)(F)F (configuration not stated),-2.0
O=C(COc1ccccc1)Nc1ccccc1C(=O)NC1CC1,-1.0
CN=C(Nc1ccccc1)SC1CC(=O)N(c2ccc(C(=O)OC)cc2)C1=O (configuration not stated),1.5
CCOc1cc(/C=C/C(=O)OCC(=O)NC2CCS(=O)(=O)C2)ccc1OCc1ccccc1 (configuration not stated),0.6
N#Cc1ccccc1NC(=S)NC(=O)c1cccs1,1.2
CCOC(NC(=O)c1ccccc1)C(NC(=O)c1ccccc1)OCC (configuration not stated),-0.3
COc1ccc2nc(NC(=O)c3ccc(NC(=O)C4CCCO4)cc3)sc2c1 (configuration not stated),3.2
COc1ccc(Br)cc1C1Nc2cccc3cccc(c23)N1,1.2
O=C(Nc1nc(-c2cccs2)cs1)c1ccc(S(=O)(=O)N2CCCC2)cc1,0.1
CC(C)(C)CC(C)(C)NC(=O)CSCC(=O)Nc1ccc2ccccc2c1,1.9
Cc1ccc(CNC(=O)c2nnc(Cc3ccc(Cl)cc3)o2)cc1,-0.1
COc1ccc(CN(C)C(=O)c2ccc(NC(=O)CC3SC(N4CCCC4)=NC3=O)cc2)c(OC)c1OC (configuration not stated),-0.8
CCOC(=O)N1CCN(Cc2nc(C3CC3)no2)CC1,0.2
COc1ccc(NC(=O)CSc2nc3ccccc3cc2Cc2ccccc2)cc1,-0.4

Continued:
SMILES,STK33 inh
COC(=O)C1CC(=O)c2sccc2C1 (configuration not stated),0.4
COc1cccc(OC)c1C(=O)Nc1ccc2nc(C)c(C)nc2c1,5.1
Cc1cc2c(cn1)C(CCC#N)(CCC#N)c1ccccc1-2,-3.1
CCOC(=O)c1c(/N=C/C2=C(O)CC(C)(C)CC2=O)sc2c1CCCC2,-1.1
Cc1ccc(-n2nc3c(c2NC(=O)CC(C)C)CS(=O)C3)cc1 (configuration not stated),2.4
CC(C)c1nnc(NC(=O)c2nc(S(=O)(=O)Cc3ccccc3F)ncc2Cl)s1,-2.0
O=C(NC1CCS(=O)(=O)C1)c1cn(-c2ccccc2)nc1-c1ccccc1 (configuration not stated),-0.1
CCNC(=O)COC(=O)/C=C/c1c(C)nn(Cc2cccc(OC)c2)c1Cl,-0.9
CC(=O)c1ccccc1NS(=O)(=O)c1ccccc1Cl,-2.1
Cc1cccc(NC(=O)C(=O)NCCCc2ccccc2)c1,0.8
COc1ccc(OC)c(-c2csc(N(Cc3ccco3)C(=O)c3ccco3)n2)c1,-0.2
COc1ccc(C(=O)Oc2coc(CSc3nnc(NC(=O)c4cccs4)s3)cc2=O)cc1,-0.1
Cc1cccc(C)c1NC(=O)/C(C#N)=C/c1ccc(-c2ccc(C(=O)O)cc2)o1,0.1
O=C(NC(=S)Nn1cnc2c(cnn2-c2ccccc2)c1=O)c1ccc(Cl)cc1,-1.1
COCCSc1nnc(NC(=O)c2ccc([N+](=O)[O-])cc2)s1,-3.0
CC(Sc1nnc(COc2ccc(Cl)cc2)n1Cc1ccccc1)C(=O)O (configuration not stated),-0.4
COc1cccc(OC)c1OCCCCN1CCCCC1,-0.4
C#CCOCCOCCOCCNc1nc(N2CCN(C(=O)CCCCCCCCCCNC(=O)[C@H](CCCCN)n3cc(CCCC(=O)O)nn3)CC2)nc(N2CCN(C(=O)CCCCCCCCCCNC(=O)[C@H](CCCCN)n3cc(CCCC(=O)O)nn3)CC2)n1,-0.1
Cc1ccc2cccc(SCC(=O)NCC#N)c2n1,-1.2
Cc1cc(C)cc(NC(=O)CCn2c(=O)c3cccn3c3ccccc32)c1,-0.7

Given with values ahead of the structure: 4 of the compounds above.
STK33 inh,structure
-0.2,COc1ccc(OC)c(-c2csc(N(Cc3ccco3)C(=O)c3ccco3)n2)c1
-0.1,COc1ccc(C(=O)Oc2coc(CSc3nnc(NC(=O)c4cccs4)s3)cc2=O)cc1
0.1,Cc1cccc(C)c1NC(=O)/C(C#N)=C/c1ccc(-c2ccc(C(=O)O)cc2)o1
-1.1,O=C(NC(=S)Nn1cnc2c(cnn2-c2ccccc2)c1=O)c1ccc(Cl)cc1

Carrying on.
SMILES,STK33 inh
Nc1ccc(S(=O)(=O)NCc2ccccn2)cc1,-1.6
C/C(=N\Nc1cc(Cl)nc(C)n1)c1ccc(Cl)c(Cl)c1,0.0
Cc1cc(-c2ccccc2)n2ncc(-c3ccccc3)c2n1,-1.3
CCc1cc2c(=O)c(-c3nc4ccccc4n3C)c(COCC(=O)O)oc2cc1OC(=O)C(C)(C)C,-0.2
Cc1c(NC(=O)C(C#N)=C2CCCCC2)c(=O)n(-c2ccccc2)n1C,-0.6
COc1ccccc1CNC(=O)CCS(=O)(=O)c1ccc(Cl)cc1,0.1
CCOC(=O)c1sc2ccccc2c1NC(=O)c1coc2ccccc2c1=O,-0.1
CC(C)[N+]1=C2C=CC=CC=C2SC12C([N+](=O)[O-])=CC(=[N+]([O-])[O-])C=C2[N+](=O)[O-] (configuration not stated),-2.2
O=C(CCNC(=O)c1ccc(Br)o1)NCc1ccc(Cl)cc1,0.6
O=C(CSc1nnc(-c2ccco2)n1-c1ccccc1Cl)Nc1cccc(C(=O)O)c1,2.7
CCOC(=O)c1cccc(NS(=O)(=O)c2c(C(=O)N3CCCCCC3)c(C)n(C)c2C)c1,1.9
COc1ccc(CN(C)C(c2ccccc2)c2nnnn2-c2ccccc2C)c(OC)c1C (configuration not stated),-3.2
COc1ccccc1NC(=O)c1sc2ncn(CC(=O)Nc3ccccc3)c(=O)c2c1C,-1.8
O=C(Cc1ccccc1)Nc1ccc(NC(=O)Cc2ccccc2)c(Cl)c1,-3.6
COc1ccc(OC)c(S(=O)(=O)N2CCC(C(=O)NCc3ccncc3)CC2)c1,-0.7
Cc1ccc(N2C(=O)c3ccccc3C2Nc2ccc(S(=O)(=O)N3CCCCC3)cc2)nc1 (configuration not stated),-0.4
O=C(COc1ccc(F)cc1)Nc1nc2c(s1)CCCC2,-1.7
COc1ccccc1NS(=O)(=O)c1cccc(NC(=O)c2cc3ccccc3oc2=O)c1,2.2
O=C(CCc1ccccc1)Nc1ccc(S(=O)(=O)N2CCOCC2)cc1,-2.1
CCS(=O)(=O)N1Cc2ccccc2CC1C(=O)Nc1nc2c(C)cccc2s1 (configuration not stated),-0.1

The results go on.
SMILES,STK33 inh
Cc1onc(-c2c(Cl)cccc2Cl)c1C(=O)NNC(=O)c1c(-c2c(Cl)cccc2Cl)noc1C,-0.9
COc1ccc(NC(=O)COC(=O)C2=COCCO2)cc1OC,-2.4
CC1CCN(S(=O)(=O)c2cnc(Cl)c(Br)c2)CC1,-1.3
CCc1ccc(/C=C2\SC(=S)N(CCC(=O)NC3=NCCS3)C2=O)cc1,-1.0
CC(=O)NCc1nnc2c3ccccc3c(-c3ccccc3)nn12,-3.1
Nc1ccc(S(=O)(=O)Nc2ccc(Cl)nn2)cc1,-0.6
COCCNC(=O)C(c1cccs1)N(Cc1ccccc1)C(=O)Cn1nnc2ccccc21 (configuration not stated),-1.0
CCCn1nnc(NCc2ccc(OCc3cccs3)c(OC)c2)n1,1.2
COc1ccc(NC(=O)Nc2ccccc2C(N)=O)cc1OC,-1.1
COCCN(C(=O)COC(=O)/C=C/c1cccs1)c1c(N)n(Cc2ccccc2)c(=O)[nH]c1=O,-1.1
Cc1nn(CC(=O)NNC(=O)c2cccc(Br)c2)c(C)c1[N+](=O)[O-],-0.5
Cc1cccc(NC2=CC(=O)OC(C)C2)c1 (configuration not stated),-0.2
COC(=O)[C@@]1(Cc2ccc(F)cc2)[C@@H]2[C@@H](CC(=O)[C@H]2CC(=O)C(=O)N(C)C)CN1C(=O)c1ccccc1,-0.5
Fc1ccccc1N1CCN(Cc2cnc(Cl)s2)CC1,-0.8
CN(C)S(=O)(=O)N1CCN(S(=O)(=O)N(C)C)CC1,1.4
COc1ccc(OC)c(C(O)c2coc3ccc(O)c(CN4CCOCC4)c23)c1 (configuration not stated),0.2
O=C(c1ccc(F)cc1)C1CCN(C(=O)c2ccncc2)CC1,-0.2
Cc1ccc(-c2csc3nc(=O)c(C)nn23)cc1,-0.7
O=C(Nc1cccc(Cl)c1)N1CCN(C2c3ccccc3-c3ccccc32)CC1,-2.9
CCCN1CCN(S(=O)(=O)c2ccc3c(c2)NC(=O)C(C)S3)CC1 (configuration not stated),-1.1

3 of the compounds above, with each value named:
Cc1onc(-c2c(Cl)cccc2Cl)c1C(=O)NNC(=O)c1c(-c2c(Cl)cccc2Cl)noc1C
  STK33 inh: -0.9

COc1ccc(OC)c(C(O)c2coc3ccc(O)c(CN4CCOCC4)c23)c1 (configuration not stated)
  STK33 inh: 0.2

Cc1nn(CC(=O)NNC(=O)c2cccc(Br)c2)c(C)c1[N+](=O)[O-]
  STK33 inh: -0.5

Continued:
SMILES,STK33 inh
CC(c1ccccc1)N1C(=O)c2ccc(C(=O)Nc3ccccc3C(=O)O)cc2C1=O (configuration not stated),1.8
COc1ccc(NC(=O)C2CCCN(c3nccc(C)n3)C2)cc1 (configuration not stated),-1.5
O=C(Nc1cc(C(=O)N2CCOCC2)cc(C(=O)N2CCOCC2)c1)c1cc(F)c(F)cc1Cl,-1.1
COc1cccc(CNC(=O)c2ccc(CS(=O)Cc3ccc(C)cc3)o2)c1 (configuration not stated),-1.6
COc1ccc(NC(=O)CCCn2c(=O)c3sccc3n(Cc3ccc(C)cc3C)c2=O)cc1,-1.2
CC(=O)NNc1ncnc2ccccc12,-2.3
COc1ccc(CCC(=O)NCCc2ccc(OC)c(OC)c2)cc1,-0.5
CCS(=O)(=O)c1nc(S(=O)(=O)c2ccc(Cl)cc2)c(N2CCN(C)CC2)s1,-0.2
CN(C)S(=O)(=O)c1cccc(NC(=O)Cn2cc(C(F)(F)F)cc(Cl)c2=O)c1,8.6
CCCN(CC(=O)Nc1ccccc1OC)C(=O)CSc1nc(C)cc(C)n1,0.7
COCCCNC(=S)Nc1ccc(C)cc1,0.0
COC(C(=O)Nc1ccc(F)c(F)c1)c1ccccc1 (configuration not stated),0.5
CCOc1ccc(CN(C)CC(=O)Nc2ccc3c(c2)CCC3)cc1OC,-1.0
O=C(OCc1nnc(-c2ccccc2)o1)c1cc(S(=O)(=O)N2CCOCC2)c(Cl)cc1Cl,-1.6
Nn1c(=O)c2ccccc2n2c(SCc3ccccc3)nnc12,-0.1
O=C(N1CCCC1)C12CC3CCC(CC(C3)C1)C2,0.8
CC1CCN(S(=O)(=O)c2ccc(Cl)cc2Br)CC1,-3.3
N#CCCn1cnc2c(=S)nc[nH]c21,-0.9
Cc1c(NC2(c3nnnn3-c3ccc(Br)cc3)CCCCC2)c(=O)n(-c2ccccc2)n1C,1.0
CCC(SC1=N/C(=C/c2ccccc2OC)C(=O)N1c1ccccc1)C(=O)Nc1cc(C)on1 (configuration not stated),1.3

Other structures
SMILES,STK33 inh
NS(=O)(=O)c1cccc(NC(=O)CSc2nnc(-c3ccccc3F)n2C2CC2)c1,-2.3
CC(=O)NN1C(=O)c2ccccc2NC1c1ccc([N+](=O)[O-])o1 (configuration not stated),-1.8
COc1ccc(S(=O)(=O)N(C)CC(=O)NCc2cccnc2)cc1OC,-1.7
CN(CCc1ccccn1)C(=O)c1ccc(OC2CCN(CCc3ccccc3)CC2)cc1,-0.4
COc1cccc(/C=C/C(=O)Nc2ccc(OC)nc2)c1,2.3
CC1CC(=O)Nc2ccccc2S1(=O)=O (configuration not stated),-0.3
CC1CC(C)(C)NC(=S)N1CC(=O)N(C)Cc1ccccc1 (configuration not stated),-1.5
Cc1ccc(NC(=O)CN(C)C(=O)COC(=O)/C=C/c2cccs2)cc1,-0.2
O=C(Cn1c(NCCCO)nc2ccccc21)c1ccc([N+](=O)[O-])cc1,-1.9
O=C(c1cc2sccc2n1Cc1ccc(F)cc1)N1CCc2ccccc21,0.1
Cc1ccc(S(=O)(=O)N(C)C)cc1NC(=S)N(CCC#N)Cc1cccnc1,0.3
CCNC(=O)/N=C1/NC(=O)C(C(C)C)O1 (configuration not stated),-0.3
NS(=O)(=O)c1cc(C(=O)OCC(=O)N2CCOCC2)ccc1Cl,-1.2
Cn1c(CNC(=O)c2ccccc2F)nnc1SCC(=O)Nc1nnc(C2CC2)s1,0.3
COc1ccc(CNn2c(-c3ccccc3F)nc3ccccc3c2=O)cc1OC,-2.9
Cc1cccc(OCC(O)Cn2c(N3CCCCC3)nc3c2c(=O)n(C)c(=O)n3C)c1 (configuration not stated),-1.8
Cn1c(NC(=O)c2cccs2)c(-c2cccs2)c(=O)c2ccccc21,-1.6
O=C(NCc1ccccc1)c1cccnc1,-1.4
CCCNC(=O)c1ccc2c(=O)c(O)c(-c3ccc(F)cc3)[nH]c2c1,-0.1
N#CCCCCN1CCCC1,-0.1

Next part
SMILES,STK33 inh
FC(F)(F)c1cc(Nc2ccccc2)nc(-c2ccccn2)n1,0.0
O=P(O)(O)c1ccccc1OCCOCCOCCOCCOc1ccccc1P(=O)(O)O,3.8
CCOc1ccc(S(=O)(=O)N2CCN(C(=O)c3ccco3)CC2)cc1,-2.0
O=C(NCC1CCCO1)c1cc2c(=O)[nH]c3ccccc3c2s1 (configuration not stated),-0.7

Screens deposited in PubChem BioAssay by Broad Institute.
